# High-throughput results as filed in PubChem.
# H5N1 antiviral – MDCK cell protection from H5N1 avian flu; cytopathic effect, luminescence, 72 h; active compounds read high; no value below 0 was filed and about half of the inactive calls have no number; reference of the scale not given here; inhibition, % at 50 µM; 96,000 tested, 0.07% active; AID 740, 2007; in the data active = inhibition above about 25%
# * hit, by the source's call; i = inactive. Some of the compounds tested; count on the stated rates, not on these rows.
SMILES,H5N1 antiviral
O=C(C(Cc1ccccc1)NS(=O)(=O)c1cccc2nsnc12)N1CCC2(CC1)OCCO2 (stereo unspecified),i
Cc1ccc(-c2nnn(CC(=O)N(c3ccccc3)C(C(=O)NCC3CCCO3)c3ccc(Cl)cc3)n2)cc1 (stereo unspecified),i
Cc1nn(-c2ccccc2)c(Cl)c1C(=O)Nc1ccccc1,1.1
Cc1onc(-c2ccccc2)c1C(=O)Nc1nc2c(s1)C(=O)CC(C)(C)C2,0.6
Cn1c(/C(C#N)=C(\O)c2ccc(S(=O)(=O)N3CCCCC3)cc2)nc2ccccc21,0.2
O=C(Nc1ccccc1)c1ccccc1CC[N+](=O)[O-],1.0
CCCn1c(NCCO)nc2ccccc21,i
COC(=O)c1sc(NC(=O)CSc2nnnn2-c2ccc(C)cc2C)nc1C,i
CCSC1(SCC)N=C(N)C2(C#N)C(c3ccccc3)NC(C)=C(C)C12C#N (stereo unspecified),i
O=C(O)CCC(=O)N1CCC(C(=O)c2cccc(Cl)c2)CC1,0.1
O=c1cc(N2CCOCC2)[nH]c(=O)n1-c1ccc(Br)cc1,1.2
CCOc1ccc(CNc2ccc3c(c2)nc(C)n3C)cc1,i
Cc1cccc(-c2nnc(SCc3cc(=O)[nH]c4ccccc34)n2C)c1,i
CC1(c2ccccc2)NC(=O)N(CCOc2ccccc2)C1=O (stereo unspecified),i
COc1cccc(/C(O)=C2/C(=O)C(=O)N(Cc3cccnc3)C2c2ccco2)c1 (stereo unspecified),i
Cc1c(C(=O)OC2CCCCC2)sc2nc[nH]c(=O)c12,2.1
CC(C)(C)c1ccc(C(=O)NNC(=O)Cc2ccccc2)cc1,2.2
Cn1c(=O)c2c(nc(N3CCCCCC3)n2CC(O)COc2ccc(Cl)cc2)n(C)c1=O (stereo unspecified),i
O=C(c1noc2c1CCc1ccccc1-2)N1CCCc2ccccc21,i
CCOC(=O)c1[nH]c(C)c(C(=O)NCCCOC(C)C)c1C,i
CCOC(=O)N1CCN(c2ccc(C(=O)c3ccccc3)cc2F)CC1,1.1
CCSc1ccccc1C(=O)n1nnc2ccccc21,i
Cc1cc(COc2ccccc2OCc2cc(C)no2)on1,0.7
O=C(c1cc2sccc2n1Cc1ccccc1)N1CCN(c2nc3ccccc3s2)CC1,5.6
C=CCNC(=S)NNC(=O)c1ccccc1,0.2
CCOC(=O)c1oc2cc(OCC(N)=O)ccc2c(=O)c1-c1ccc(OC)c(OC)c1,0.4
O=C(NCCc1ccc(Cl)cc1)C1CCN(S(=O)(=O)N2CCC3(CC2)OCCO3)CC1,0.3
CCCCN(CCCC)C1=Nc2ccccc2N/C1=C(/C#N)C(=O)OCC,4.9
COc1ccccc1CCNS(=O)(=O)c1c(C)n(C)c(=O)n(C)c1=O,1.7
COc1cc(Cl)c(S(=O)(=O)NCCN2CCOCC2)cc1Cl,i
Cc1ccc(-c2csc3ncnc(SCC(=O)c4ccc5c(c4)OCCO5)c23)cc1,i
CSc1ccccc1C(=O)Nc1cccc(C)c1,i
CC(=O)Nc1nonc1NC(=O)CSc1nc2ccccc2o1,0.6
CSc1nc2ccccc2n1CC(=O)N1CCCCC1,i
CC(=O)N(C)c1nnc(-c2cnccn2)s1,i
C/C(=N\NC(=O)c1cc(C2CC2)nc2ccccc12)c1ccc(C)s1,i
COc1ccc(CC(=O)Nc2ccc(S(=O)(=O)Nc3ncccn3)cc2)cc1,i
O=C(OCCN1C(=O)c2ccccc2C1=O)c1cnccn1,i
Cc1sc2nc(SCC(=O)OC(C)C)n(C)c(=O)c2c1C,3.5
CCOC(=O)N1CCN(C(=O)c2ccc(CN(c3ccc(C)c(C)c3)S(C)(=O)=O)cc2)CC1,i
Cc1cccc(NC(=O)CSc2nnc([C@@H]3CCCN3C(=O)OC(C)(C)C)o2)c1C,8.9
C=Cn1c(C(=O)O)cc(CC)c1-c1ccccc1,0.2
COc1ccc(S(=O)(=O)N2CCC(C(=O)NCCc3ccccc3)CC2)cc1OC,0.9
O=C(/C=C/c1ccccc1)c1cc(Br)ccc(=O)c1O,4.2
CCOc1ccc(OCc2cccc(C(=O)N3CCOCC3)c2)cc1,i
CCC1CCCCN1S(=O)(=O)c1ccc(C(=O)Nc2nnc(-c3cccs3)o2)cc1 (stereo unspecified),1.6
COC(=O)C1=C(C)N(c2ccc(S(N)(=O)=O)cc2)C(=O)C1,i
Cc1c(N=c2c(=O)c3ccccc3c2=O)c(=O)n(-c2ccccc2)n1C,1.5
CCCn1c(=O)c2ccccc2n2c(SCCOc3ccc(C)cc3)nnc12,i
COc1cc(/C=C2/SC(=NCc3ccccc3)N(Cc3ccccc3)C2=O)ccc1O,i
# Later entries:
SMILES,H5N1 antiviral
CCC(CC)n1[nH]c(=O)c2c(C)cc(C)nc21,i
O=C1c2cccc3cccc(c23)C(=O)N1c1nncs1,0.8
CCOC(=O)C1=C(N)N2C(=O)C(C)SC2=C(C(=O)OC)C1c1cccc(OC)c1 (stereo unspecified),0.1
COc1ccc(-c2cc(C(=O)Nc3cc(C)n(Cc4ccc(Cl)cc4)n3)no2)cc1OC,i
COc1ccc(C(=O)N2CCC(C(=O)Nc3ccccc3OC)CC2)cc1,2.2
Cc1nn(Cc2ccccc2Cl)c2sc(C(=O)NCc3ccc4c(c3)OCO4)cc12,i
Cn1c(=O)n(C)c2cc(C(=O)O)ccc21,0.5
Cn1c2c(c(=O)n(C)c1=O)C(c1ccc(Br)cc1)Nc1ccccc1O2 (stereo unspecified),1.9
Nc1ccccc1C(=O)c1ccccc1,i
COc1cc(NC(=O)c2cc(OC)c(OC)c(OC)c2)c(OC)cc1NC(=O)CN1CCCCC1,i
COc1cccc(N(C(=O)CNC(=O)c2ccco2)C(C(=O)NC2CCCCC2)c2ccncc2)c1 (stereo unspecified),0.3
O=C(Cc1ccccc1)NNC(=O)Nc1cccc(Cl)c1,i
Cc1coc(C)c1C(=O)CC1(O)C(=O)Nc2cc(Cl)cc(Cl)c21 (stereo unspecified),i
CCOC(=O)c1c(C)oc2ccc(OCc3cc(C(=O)OC)oc3C)cc12,i
CCN1C(=O)C2(SC(NC(C)=O)=NN2C(C)=O)c2cc(C)ccc21 (stereo unspecified),i
N#Cc1c(N)sc(=S)c2c1CCCCC2,3.6
O=C1CC(c2ccccc2)CC(O)=C1C=NCCN1CCN(C(=O)Nc2ccccc2)CC1 (stereo unspecified),0.8
CN(C)C(=O)Cn1cnc2c(cnn2-c2ccccc2Cl)c1=O,i
O=C(CSc1nccn1-c1cccc(Cl)c1)Nc1ccc2c(c1)OCCO2,i
Cc1noc(C)c1C(=O)N1CCN(CCc2ccccc2)CC1,i
Cc1ccsc1/C=N\NC(=O)c1ccc2c(c1)OCO2,i
COC(=O)c1cccc(NC(=O)c2cccc(OC)c2)c1,i
Cc1nn(Cc2c(Cl)cccc2Cl)c(C)c1NC(=O)c1cc(C(C)C)on1,0.3
COc1ccc(OC)c(S(=O)(=O)N(C)CC(=O)Nc2ccc3c(c2)OCCO3)c1,i
O=C(NCCc1ccccc1)C1CCN(C(=O)c2sccc2-n2cccc2)CC1,2.1
O=C(Nc1ccccc1F)NC1CCN(Cc2nnnn2Cc2ccc(F)cc2)CC1,i
O=C1C(=O)N(c2cccc(Cl)c2)C(c2ccccc2[N+](=O)[O-])/C1=C(\O)c1ccccc1 (stereo unspecified),i
O=C(CSc1nc2c(cnn2-c2ccc(F)cc2)c(=O)[nH]1)N1CCOCC1,i
Cn1nc(CC(=O)Nc2ccc(N3CCN(C(=O)OC(C)(C)C)CC3)cc2)c2ccccc2c1=O,0.5
O=C(NC1CCCCC1)c1nc2c(nnn2Cc2ccccc2Cl)c(=O)[nH]1,i
Cc1ccc(C2=[N+]([O-])C3(CCCCC/C3=N\NC(N)=O)N(O)C2(C)C)o1 (stereo unspecified),0.2
C=CCN1C(=O)NC(=O)/C(=C/c2cccn2C)C1=O,i
CSc1nc2ccc(NC(=O)CSc3nnc(N)s3)cc2s1,i
CCCCC(CC)C(=O)NCc1ccccc1OC (stereo unspecified),i
COc1cc(/C=N/NC(N)=O)cc(Br)c1OCc1ccccc1C,1.5
Cc1ccc(C2(C)NC(=O)N(Cc3c(C)noc3C)C2=O)cc1 (stereo unspecified),i
Cc1ccc(SCC(=O)Nc2ccccc2C(=O)O)cc1,0.1
CCOC(=O)c1oc2ccc(Br)cc2c1NC(=O)CN1CCN(C)CC1,1.9
Cc1ncc(C[n+]2csc(CCOC(=O)CC3C4CC5CC(C4)CC3C5)c2C)c(N)n1 (stereo unspecified),i
Cc1ccc(OCC(=O)N2CCN(C(=O)Cc3ccccc3)CC2)cc1,1.2

# Reprinted from the part before: 2 entries; new compounds follow.
SMILES,H5N1 antiviral
Cc1ncc(C[n+]2csc(CCOC(=O)CC3C4CC5CC(C4)CC3C5)c2C)c(N)n1 (stereo unspecified),i
Cc1ccc(OCC(=O)N2CCN(C(=O)Cc3ccccc3)CC2)cc1,1.2
Cc1ccccc1CNC(=O)c1ccccc1N,1.0
CC1(C)CC(=O)C2=C(C1)N(C1CCCCC1)C(=O)C2(O)C(F)(F)F (stereo unspecified),i
CCCCNC(=O)Cc1c(O)c2ccccc2[nH]c1=O,i
CC1=CCC2C(=O)N(c3cccc(C(=O)N(C)C4CCCCC4)c3)C(=O)C2C1 (stereo unspecified),0.5
O=C(NCCCN1CCOCC1)c1ccc(CS(=O)(=O)Cc2ccc(Cl)cc2)o1,0.1
C/C(=C\c1cc(C(=O)O)c(C)o1)CO,0.4
CC1=C(C(N)=O)C(c2cccnc2)n2nc(-c3cccc(Cl)c3)nc2N1 (stereo unspecified),1.6
Cc1csc(N/N=C/c2ccc(O)c([N+](=O)[O-])c2)n1,2.2
CC1CN(CCCCOc2ccc(C(C)C)cc2)CC(C)O1 (stereo unspecified),1.8
CC(C)CC(OC(=O)c1cccs1)C(=O)NCC1CCCO1 (stereo unspecified),0.2
COc1ccc(CC(=O)c2ccccc2C(=O)O)cc1,1.0
O=S(=O)(c1ccc(F)cc1)n1ccc(-c2cccc(OCc3c(F)cccc3Cl)c2)n1,0.5
Cn1cc(Cl)c(C(=O)N2CCN(c3ncccn3)CC2)n1,i
CC1CCC(C(C)C)C(OC(=O)COC(=O)c2cccn2C)C1 (stereo unspecified),i
FC(F)(F)c1cc(-c2ccc(Cl)cc2)nc2ncnn12,0.3
CCOC(=O)CC(=O)CSc1nc(N)c(C#N)c(-c2ccc(Cl)cc2)c1C#N,0.2
COc1ccc(CCNC(=O)C2CC(=O)N(C3CCCC3)C2)cc1OC (stereo unspecified),i
CC(=O)Nc1ccc(-n2c(C)nc(=O)c(-c3ccccc3)c2C)cc1,0.4
C=CCN1C(c2ccccc2)=CS/C1=C(\C#N)c1nnc2n1CCCCC2,i
CCCC[n+]1ccn(-c2nc3ccccc3nc2[N-]S(=O)(=O)c2ccc(C)cc2)c1,0.5
Cc1ccccc1NC(=O)c1cc(N)ccc1N1CCCCC1,4.9
Cn1c(=O)cc(SCC(=O)N2CCCC2)c2cc(Cl)ccc21,0.3
CC(C)C(NC(=O)OCc1ccccc1)C(=O)OCC(=O)N1C(C)CCCC1C (stereo unspecified),i
O=C(NCCNC(=O)c1ccco1)c1cccc(F)c1,i
CCN(CC)S(=O)(=O)c1cccc(C(=O)N[C@H](C(=O)NCc2ccccc2F)C(C)C)c1,i
O=C1OC(N2CCN(C(=O)c3ccco3)CC2)c2ccccc21 (stereo unspecified),0.2
CC1Cn2c(CCc3ccccc3)nnc2S1 (stereo unspecified),i
O=C(CSc1ncccc1-c1nc2ccccc2[nH]1)N1CCCCC1,1.2
CCCc1nnc(NC(=O)COC(=O)c2cc(C)nc3ccccc23)s1,i
Cc1ccc2c(N)c(C)ccc2c1,i
COC(=O)COc1ccc2c(-c3cccc([N+](=O)[O-])c3)cc(=O)oc2c1,0.2
O=c1nc2ccccc2c2n1CC(CN1CCN(Cc3ccccc3)CC1)N2 (stereo unspecified),i
Cn1c(=O)c2c(nc(-n3ccnc3)n2Cc2ccc([N+](=O)[O-])cc2)n(C)c1=O,2.5
C1=C(CCNc2nnnn2-c2ccccc2)CCCC1,0.9
O=C(Nc1cccnc1)C1CCCN(S(=O)(=O)c2ccccc2)C1 (stereo unspecified),0.1
CCOC(=O)c1[nH]c(C)c(C(=O)Nc2cccc(Cl)c2C)c1C,i
COc1ccc(NC(=O)C2CCCN2S(=O)(=O)c2ccc3c(c2)CCC(=O)N3)cc1Cl (stereo unspecified),3.9
CCOC(=O)c1oc2ccc(S(=O)(=O)n3nc(-c4ccc(C)cc4)cc3N)cc2c1C,i
CC(C)OC(=O)CSc1nnc(Cc2ccccc2)n1Cc1ccco1,1.7
Cc1nc(COC(=O)c2ccc(S(=O)(=O)N3CCCC3)cc2)cs1,0.7
Cc1ccc(S(=O)(=O)NC(CC(=O)N2CCOCC2)c2ccco2)cc1 (stereo unspecified),i
CCNC(=O)COc1ccc(-c2ccccc2)cc1,0.7

# Structural class, the compounds so far with an aryl thioether with sulfur outside any ring (18)
SMILES,H5N1 antiviral
COC(=O)c1sc(NC(=O)CSc2nnnn2-c2ccc(C)cc2C)nc1C,i
Cc1cccc(-c2nnc(SCc3cc(=O)[nH]c4ccccc34)n2C)c1,i
CCSc1ccccc1C(=O)n1nnc2ccccc21,i
Cc1ccc(-c2csc3ncnc(SCC(=O)c4ccc5c(c4)OCCO5)c23)cc1,i
CSc1ccccc1C(=O)Nc1cccc(C)c1,i
CC(=O)Nc1nonc1NC(=O)CSc1nc2ccccc2o1,0.6
CSc1nc2ccccc2n1CC(=O)N1CCCCC1,i
Cc1sc2nc(SCC(=O)OC(C)C)n(C)c(=O)c2c1C,3.5
Cc1cccc(NC(=O)CSc2nnc([C@@H]3CCCN3C(=O)OC(C)(C)C)o2)c1C,8.9
CCCn1c(=O)c2ccccc2n2c(SCCOc3ccc(C)cc3)nnc12,i
O=C(CSc1nccn1-c1cccc(Cl)c1)Nc1ccc2c(c1)OCCO2,i
O=C(CSc1nc2c(cnn2-c2ccc(F)cc2)c(=O)[nH]1)N1CCOCC1,i
CSc1nc2ccc(NC(=O)CSc3nnc(N)s3)cc2s1,i
Cc1ccc(SCC(=O)Nc2ccccc2C(=O)O)cc1,0.1
CCOC(=O)CC(=O)CSc1nc(N)c(C#N)c(-c2ccc(Cl)cc2)c1C#N,0.2
Cn1c(=O)cc(SCC(=O)N2CCCC2)c2cc(Cl)ccc21,0.3
O=C(CSc1ncccc1-c1nc2ccccc2[nH]1)N1CCCCC1,1.2
CC(C)OC(=O)CSc1nnc(Cc2ccccc2)n1Cc1ccco1,1.7
